ALR inh – human ALR oxidase inhibition via reduced H2O2. P55789. purified ALR, DTT oxidation, H2O2 HRP-luminol luminescence. inhibition, % (test concentration not listed). 3.8% of 290,000 active;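 active = mean and each replicate at 75% or more; inconclusive = only one of the two met; inactive = neither met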;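 also: stock transfer was 7.5 nL into about 7.5 µL; 0% = neutral wells and 100% = wells with inactivated enzyme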
Target sequence (P55789 whole entry, looked up): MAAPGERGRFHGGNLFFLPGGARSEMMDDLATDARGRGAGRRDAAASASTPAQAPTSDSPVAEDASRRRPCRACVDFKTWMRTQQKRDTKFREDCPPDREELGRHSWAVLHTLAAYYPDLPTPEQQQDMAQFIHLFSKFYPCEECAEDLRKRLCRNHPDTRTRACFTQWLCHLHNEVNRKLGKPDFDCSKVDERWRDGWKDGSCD
HNF4A DNA FP – change in binding of human HNF4 alpha to DNA | P41235 | HNF4a-FITC DNA binding, fluorescence polarization, 1 h | activity change, % at 10 µM | 0.3% of 360,000 active | AID 1224865; in the data active = activity change above about 30%, passing the limit was not always enough;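 also: controls were the assay level and a saturating level of protein; the project sought stronger binding though the title names inhibitors; some compounds called inactive have numbers as strong as hits; positive values seem to mean higher polarization but the record does not say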
Target sequence (P41235 whole entry, looked up): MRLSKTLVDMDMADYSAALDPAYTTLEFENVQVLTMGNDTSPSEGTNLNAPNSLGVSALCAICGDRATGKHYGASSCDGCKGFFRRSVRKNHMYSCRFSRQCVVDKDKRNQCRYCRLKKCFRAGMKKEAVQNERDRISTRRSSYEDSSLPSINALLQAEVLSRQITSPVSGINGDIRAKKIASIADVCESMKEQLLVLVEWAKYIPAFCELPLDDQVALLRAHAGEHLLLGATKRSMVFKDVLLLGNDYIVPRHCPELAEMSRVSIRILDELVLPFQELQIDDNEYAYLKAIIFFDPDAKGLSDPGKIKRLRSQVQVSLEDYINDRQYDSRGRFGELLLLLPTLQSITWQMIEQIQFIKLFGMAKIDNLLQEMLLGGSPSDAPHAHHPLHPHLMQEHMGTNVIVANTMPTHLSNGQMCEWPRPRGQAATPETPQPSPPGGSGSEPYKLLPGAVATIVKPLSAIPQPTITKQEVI
RanGTP-Imp inh – inhibitors of RanGTP-importin-beta interaction, primary screen, biochemical, FRET, CFP-Ran, YFP-importin-beta, homogeneous | cell-free CFP-Ran/YFP-importin-beta FRET ratio | 1.1% of 300,000 active | inhibition, % (concentration not given with the values) | AID 2216;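 active = most replicates above 15%; inconclusive = exactly half above 15%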;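 also: 0% = DMSO wells and 100% = Ran loaded with GDP instead of GTP; wells of about 40 µL received 100 nL stock; the first replicate is given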
Vif TR-FRET – HIV-1 Vif–A3G interaction blockers – biochemical, TR-FRET, GST-Vif 1-94, biotin-A3G peptide, dose response retest, primary screen (AID 1117319); TR-FRET GST-Vif / biotin-A3G peptide binding; higher % means a stronger effect; test concentration not given here; strong numbers were not always called active; inhibition, %; hits with a dose series show IC50 in µM; 0.57% of 260,000 active;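 active = above the screen mean plus three standard deviations and confirmed in dose response; inconclusive = results disagree or hit not tested in dose response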;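 also: Vif residues 1-94 fused to GST binding biotinylated APOBEC3G peptide 110-148; 0% = full assay without inhibitor and 100% = GST in place of GST-Vif; retest series ran down from 100 µM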
LANA-H2B inh – blocks KSHV LANA binding to histone H2A/H2B; Q9QR71; 0.6% of 320,000 active; cell-free LANA-H2A/H2B peptide, fluorescence polarization; inhibition, % (concentration not given with the values); AID 2629; in the data active = inhibition mostly above about 10%, no sharp cut-off; inactive = mostly below about 6.7%;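 also: stock transfer was 7.5 nL into about 10 µL; 0% = median of vehicle wells and 100% = median of positive control wells; one replicate is shown; the record names a cut of 25% in any replicate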
Calb FLC – C. albicans growth modulation with fluconazole. C. albicans CaCi-2 (fluconazole-resistant clinical isolate) + fluconazole, Alamar Blue growth, 48 h. growth inhibition, % (concentration not given with the values). 0.57% of 300,000 active. AID 1979;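 active = most replicates above 75%; inconclusive = exactly half above 75%; inactive = most below 75%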;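 also: all wells also contain fluconazole at 8 µg/ml as a sub-toxic cotreatment; 0% = median of DMSO wells and 100% = median of geldanamycin control wells; wells of about 8 µL received 7.5 nL stock; the first replicate is given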
B2AR ag – agonists of human beta-2 adrenergic receptor inducing internalization | Am2.2-beta2AR cells, FAP receptor internalization, flow cytometry; reference of the scale not given here | response, % (no concentration beside the values) | 0.43% of 340,000 active | AID 504454;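 active = response above a set limit, near 3 SD of response in nonfluorescent compounds, cut at about 42% in these data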;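 also: stock transfer was 100 nL into about 11 µL; a reference agonist was the positive control; negative values mostly stem from fluorescent compounds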
* hit, by the source's call; & = joins results of further samples.

What do the screens show for `Cc1cccn2c(=O)c(C=O)c(Cl)nc12`?
ALR inh: 98.0*; HNF4A DNA FP: 2.2; RanGTP-Imp inh: inconclusive; Vif TR-FRET: 0.7%; LANA-H2B inh: -2.1; Calb FLC: -3.1; B2AR ag: 15.4

How did COc1ccc(-n2ccnc2CN2CCCC(CO)(Cc3cccc(OC)c3)C2)cc1 (centres undefined) do in these assays?
ALR inh: -7.5; HNF4A DNA FP: -0.1; RanGTP-Imp inh: 1.4; Vif TR-FRET: -4.5%; LANA-H2B inh: 0.6; Calb FLC: -0.7; B2AR ag: -8.2

What do the screens show for `CCCCCCCCN1N=N[C@H]2[C@H]1[C@@H]1C[C@H]2N(C(=O)OC(C)(C)C)O1`?
HNF4A DNA FP: -0.6; Vif TR-FRET: -3.0%; B2AR ag: -4.7

What do the screens show for `COC(=O)c1c(-c2ccc(N(C)C)cc2)sc2ccc(OC)cc12`?
ALR inh: -0.2; HNF4A DNA FP: 0.6; LANA-H2B inh: -1.2; B2AR ag: -3.0

Results for O=C(Nc1ccccc1Cl)O/N=C/c1ccncc1 ?
ALR inh: 1.7; HNF4A DNA FP: -2.2; RanGTP-Imp inh: 4.1; LANA-H2B inh: -3.2; Calb FLC: 23.5; B2AR ag: -3.8

What do the screens show for `CCN(CC(=O)Nc1ccc2c(c1)OCCO2)C(=O)c1cccc(S(=O)(=O)N2CCOCC2)c1`?
ALR inh: -3.6; HNF4A DNA FP: -1.4; RanGTP-Imp inh: 5.1; Vif TR-FRET: -5.7%&-10.3%; LANA-H2B inh: -0.2; Calb FLC: 7.3; B2AR ag: -8.7

Results for COc1ccc(C(=O)COC(=O)CCCC(=O)NC2CCCCC2)cc1 ?
ALR inh: -11.6; HNF4A DNA FP: 2.8; RanGTP-Imp inh: 8.1; Vif TR-FRET: -3.5%; LANA-H2B inh: -3.1; Calb FLC: -7.4; B2AR ag: -8.9

What do the screens show for `Cc1cc(C(=O)NCCCn2ccnc2)cs1`?
ALR inh: 2.2; HNF4A DNA FP: -4.9; RanGTP-Imp inh: 0.8; Vif TR-FRET: -0.9%; LANA-H2B inh: 2.9; Calb FLC: 3.0; B2AR ag: 6.6

What do the screens show for `Cc1ccc(-c2nc(C)sc2CC(=O)Nc2nnc(C)s2)cc1`?
ALR inh: 97.5*; HNF4A DNA FP: 6.9; RanGTP-Imp inh: -0.6; Vif TR-FRET: -2.1%; LANA-H2B inh: -0.1; Calb FLC: 6.5; B2AR ag: 13.0

What do the screens show for `CCOC(=O)c1c(C)oc(C)c(C(=O)OCC)c1=O`?
ALR inh: -13.6; HNF4A DNA FP: -4.0; RanGTP-Imp inh: -2.1; Vif TR-FRET: 5.4%; LANA-H2B inh: -3.4; Calb FLC: 5.0; B2AR ag: -8.2

Results for COc1cc(NC(=O)c2ccc(CNc3c(N4CCCC4)c(=O)c3=O)cc2)cc(OC)c1OC ?
ALR inh: 0.6; HNF4A DNA FP: 0.5; RanGTP-Imp inh: 3.0; Vif TR-FRET: 5.6%; LANA-H2B inh: -8.7; Calb FLC: 0.1; B2AR ag: -4.4

What do the screens show for `O=c1[nH]c(O)c(N=Nc2ccc(Cl)c(S(=O)(=O)Nc3ccccc3Cl)c2)c(=O)[nH]1`?
ALR inh: 36.5; HNF4A DNA FP: -2.3; LANA-H2B inh: -3.2; B2AR ag: -5.6

Results for O=c1[nH]c2c(c(=O)n1-c1ccccc1)CCO2 ?
HNF4A DNA FP: 11.2; Vif TR-FRET: -3.2%; B2AR ag: 13.2

What do the screens show for `O=C(Nc1ccc(Cl)cc1)Nc1cc(S(=O)(=O)N2CCOCC2)ccc1N1CCCC1`?
ALR inh: -6.6; HNF4A DNA FP: 1.9; RanGTP-Imp inh: 1.8; Vif TR-FRET: 11.0%; LANA-H2B inh: -3.7; Calb FLC: 18.2; B2AR ag: 9.6

What do the screens show for `COC(=O)CNC(=O)C1CCN(S(=O)(=O)c2cccc3nsnc23)CC1`?
ALR inh: -4.9; HNF4A DNA FP: 1.4; RanGTP-Imp inh: 2.3; LANA-H2B inh: 8.8; Calb FLC: 2.8; B2AR ag: -0.8

Pulled one by one from above (3):
Results for COc1ccc(C(=O)COC(=O)CCCC(=O)NC2CCCCC2)cc1 ?
ALR inh: -11.6; HNF4A DNA FP: 2.8; RanGTP-Imp inh: 8.1; Vif TR-FRET: -3.5%; LANA-H2B inh: -3.1; Calb FLC: -7.4; B2AR ag: -8.9

What do the screens show for `COC(=O)c1c(-c2ccc(N(C)C)cc2)sc2ccc(OC)cc12`?
ALR inh: -0.2; HNF4A DNA FP: 0.6; LANA-H2B inh: -1.2; B2AR ag: -3.0

Results for O=c1[nH]c2c(c(=O)n1-c1ccccc1)CCO2 ?
HNF4A DNA FP: 11.2; Vif TR-FRET: -3.2%; B2AR ag: 13.2

Following part.
Results for O=C(O)CC(c1cccc(O)c1)N1Cc2ccccc2C1=O (centres undefined) ?
ALR inh: -3.8; HNF4A DNA FP: -2.8; RanGTP-Imp inh: 1.1; Vif TR-FRET: 4.1%; LANA-H2B inh: 2.9; Calb FLC: -4.8; B2AR ag: -1.0

Results for N#CC1=C(N)Oc2n[nH]c(-c3cccs3)c2C1c1ccncc1 (centres undefined) ?
HNF4A DNA FP: -1.3; RanGTP-Imp inh: -2.8; Vif TR-FRET: 13.4%; LANA-H2B inh: 3.0; Calb FLC: 24.8; B2AR ag: 1.2

How did NC(=S)N/N=C/c1ccc(-c2ccc(SC(F)F)cc2)o1 do in these assays?
ALR inh: 21.4; HNF4A DNA FP: 12.2; RanGTP-Imp inh: 1.8; LANA-H2B inh: 0.0; Calb FLC: -1.9; B2AR ag: 11.7

How did O=C1CCCC(O)=C1Sc1cc(Cl)c(Cl)cc1Cl do in these assays?
ALR inh: -2.1; HNF4A DNA FP: 0.7; RanGTP-Imp inh: -3.0; LANA-H2B inh: -0.5; Calb FLC: 0.2; B2AR ag: 3.4

How did CCCc1[nH]n(-c2ccc([N+](=O)[O-])cc2)c(=O)c1C(C)=NCc1ccncc1 do in these assays?
ALR inh: -5.9; HNF4A DNA FP: -1.1; RanGTP-Imp inh: 5.4; Vif TR-FRET: 1.0%; LANA-H2B inh: -1.4; Calb FLC: 4.0; B2AR ag: 11.1

Results for COc1ccc(S(=O)(=O)n2nc(-c3cc(OC)c(OC)c(OC)c3)cc2N)cc1OC ?
ALR inh: 1.6; HNF4A DNA FP: 1.2; Vif TR-FRET: inconclusive; LANA-H2B inh: 11.0; B2AR ag: -7.0

Results for COc1ccc2oc(C(=O)OCC(=O)NC3CCCC3)c(C)c2c1 ?
ALR inh: -18.6; HNF4A DNA FP: 3.2; RanGTP-Imp inh: -18.0; Vif TR-FRET: 1.2%; LANA-H2B inh: 1.7; Calb FLC: 5.0; B2AR ag: -8.2

Results for CN(Cc1cnn(C)c1)C(=O)C1CCC(=O)N(C2CCCCCC2)C1 (centres undefined) ?
ALR inh: -4.1; HNF4A DNA FP: -0.8; RanGTP-Imp inh: 1.3; Vif TR-FRET: -4.4%; LANA-H2B inh: -0.7; Calb FLC: -2.2; B2AR ag: 1.5

How did COc1ccc(C(=S)N2CCOCC2)cc1OC(=O)c1ccccc1 do in these assays?
ALR inh: 3.7; HNF4A DNA FP: 0.3; RanGTP-Imp inh: -0.2; LANA-H2B inh: -1.5; Calb FLC: 5.4; B2AR ag: 5.5

What do the screens show for `Cc1cccc(C)c1NC(=O)Cn1cc(C=O)c2ccccc21`?
ALR inh: -10.3; HNF4A DNA FP: 4.2; RanGTP-Imp inh: -2.8; LANA-H2B inh: -2.2; Calb FLC: 5.8; B2AR ag: 7.4

How did CCC(C(=O)OCC(=O)c1ccc(OC)cc1OC)c1ccccc1 (centres undefined) do in these assays?
ALR inh: 0.6; HNF4A DNA FP: 0.8; Vif TR-FRET: 10.3%; LANA-H2B inh: -7.5; B2AR ag: 2.7

How did O=C(CN1C(=O)NC2(CCCCCCC2)C1=O)NCc1cccs1 do in these assays?
ALR inh: 1.8; HNF4A DNA FP: 0.4; RanGTP-Imp inh: 1.8; Vif TR-FRET: 11.1µM*; LANA-H2B inh: 1.9; Calb FLC: 33.8; B2AR ag: -3.3

Results for Cc1cccnc1NC(=O)C1CCC1 ?
ALR inh: -15.2; HNF4A DNA FP: 0.3; RanGTP-Imp inh: 2.3; Vif TR-FRET: 2.2%; LANA-H2B inh: 5.0; Calb FLC: -11.7; B2AR ag: 5.0

Results for Cc1cc(C)c(NC(=S)N(CCN(C)C)Cc2cccs2)c(C)c1 ?
HNF4A DNA FP: -1.6; RanGTP-Imp inh: -2.2; Vif TR-FRET: 8.6%; LANA-H2B inh: -13.0; Calb FLC: 5.7; B2AR ag: 4.8

Results for O=c1[nH]c(=O)n(Cc2ccco2)c2c1C(C(F)(F)F)(C(F)(F)F)N=C(Cc1ccccc1)N2 ?
ALR inh: 2.0; HNF4A DNA FP: 1.1; RanGTP-Imp inh: 0.1; Vif TR-FRET: -0.5%; LANA-H2B inh: -0.4; Calb FLC: 12.1; B2AR ag: 12.5

What do the screens show for `CN(C)c1ccccc1-c1csc(N2CCC(C(N)=O)CC2)n1`?
ALR inh: 22.1; HNF4A DNA FP: -0.9; LANA-H2B inh: 2.9; B2AR ag: -0.4

How did Cc1c(C(=O)NCc2ccccn2)oc2ccc(S(=O)(=O)N3CCC4(CC3)OCCO4)cc12 do in these assays?
ALR inh: 8.8; HNF4A DNA FP: -8.7; RanGTP-Imp inh: -0.4; Vif TR-FRET: -1.9%; LANA-H2B inh: 5.9; Calb FLC: -7.3; B2AR ag: -3.5

What do the screens show for `Cc1ccc(NC(=O)c2cc([N+](=O)[O-])ccc2NCc2cccnc2)cc1`?
ALR inh: 7.9; HNF4A DNA FP: 2.2; RanGTP-Imp inh: 2.5; Vif TR-FRET: 13.8%; LANA-H2B inh: 3.9; Calb FLC: 35.0; B2AR ag: -10.7

What do the screens show for `CSc1ccc(C(=S)N2CCCC2)cc1`?
ALR inh: -1.0; HNF4A DNA FP: -3.1; RanGTP-Imp inh: 3.5; LANA-H2B inh: -1.3; Calb FLC: 2.4; B2AR ag: 4.1

What do the screens show for `CC(=O)Nc1ncc(Cc2ccc(Cl)cc2Cl)s1`?
ALR inh: -7.2; HNF4A DNA FP: 2.8; RanGTP-Imp inh: -2.2; Vif TR-FRET: -0.2%; LANA-H2B inh: 3.9; Calb FLC: 8.6; B2AR ag: -3.9

How did O=C(CN1C(=O)NC2(CCc3ccccc32)C1=O)Nc1ccc(Br)cc1F (centres undefined) do in these assays?
HNF4A DNA FP: -0.6; Vif TR-FRET: -9.8%; B2AR ag: 4.0

What do the screens show for `CC1C(=O)C(C)C(c2ccco2)NC1c1ccco1` (centres undefined)?
ALR inh: 0.8; HNF4A DNA FP: 0.6; RanGTP-Imp inh: 0.2; Vif TR-FRET: inconclusive; LANA-H2B inh: 4.7; Calb FLC: 13.1; B2AR ag: -0.3

What do the screens show for `Cc1ccc(N2NC(=O)/C(=C/c3ccc(-c4ccc(Cl)c(C(=O)O)c4)o3)C2=O)cc1C`?
ALR inh: -1.0; HNF4A DNA FP: -5.3; RanGTP-Imp inh: inconclusive; Vif TR-FRET: -2.9%; LANA-H2B inh: -0.4; Calb FLC: 1.5; B2AR ag: 6.8

Results for CCCC(=O)Nc1ccc2c(c1)nc(CCN1CCN(c3ccccn3)CC1)n2C ?
ALR inh: -24.0; HNF4A DNA FP: -0.1; RanGTP-Imp inh: -1.5; Vif TR-FRET: -3.6%; LANA-H2B inh: -0.2; Calb FLC: 28.1; B2AR ag: -13.4
